# Screens: PubChem, National Center for Advancing Translational Sciences (NCATS)
# nsP2pro primary = inhibitors of chikungunya virus nsP2 protease; FRET peptide cleavage, nsP2pro, fluorescence 1 h; hit rate 1.1% among 31,000; Potency, µM (titrated, usually from 24.9 µM), inactives show top-dose activity change, negative = inhibition, usual class: inhibitors; active means well fitted inhibition curve with a large enough effect; inconclusive means small, poorly fitted or top-dose-only effect; inactive means no such curve, though single readings can be large or run the other way; also: nearly all actives have a fitted effect of over 60% in size; a reference inhibitor and vehicle were the controls
# Target sequence (Q8JUX6 whole entry, looked up): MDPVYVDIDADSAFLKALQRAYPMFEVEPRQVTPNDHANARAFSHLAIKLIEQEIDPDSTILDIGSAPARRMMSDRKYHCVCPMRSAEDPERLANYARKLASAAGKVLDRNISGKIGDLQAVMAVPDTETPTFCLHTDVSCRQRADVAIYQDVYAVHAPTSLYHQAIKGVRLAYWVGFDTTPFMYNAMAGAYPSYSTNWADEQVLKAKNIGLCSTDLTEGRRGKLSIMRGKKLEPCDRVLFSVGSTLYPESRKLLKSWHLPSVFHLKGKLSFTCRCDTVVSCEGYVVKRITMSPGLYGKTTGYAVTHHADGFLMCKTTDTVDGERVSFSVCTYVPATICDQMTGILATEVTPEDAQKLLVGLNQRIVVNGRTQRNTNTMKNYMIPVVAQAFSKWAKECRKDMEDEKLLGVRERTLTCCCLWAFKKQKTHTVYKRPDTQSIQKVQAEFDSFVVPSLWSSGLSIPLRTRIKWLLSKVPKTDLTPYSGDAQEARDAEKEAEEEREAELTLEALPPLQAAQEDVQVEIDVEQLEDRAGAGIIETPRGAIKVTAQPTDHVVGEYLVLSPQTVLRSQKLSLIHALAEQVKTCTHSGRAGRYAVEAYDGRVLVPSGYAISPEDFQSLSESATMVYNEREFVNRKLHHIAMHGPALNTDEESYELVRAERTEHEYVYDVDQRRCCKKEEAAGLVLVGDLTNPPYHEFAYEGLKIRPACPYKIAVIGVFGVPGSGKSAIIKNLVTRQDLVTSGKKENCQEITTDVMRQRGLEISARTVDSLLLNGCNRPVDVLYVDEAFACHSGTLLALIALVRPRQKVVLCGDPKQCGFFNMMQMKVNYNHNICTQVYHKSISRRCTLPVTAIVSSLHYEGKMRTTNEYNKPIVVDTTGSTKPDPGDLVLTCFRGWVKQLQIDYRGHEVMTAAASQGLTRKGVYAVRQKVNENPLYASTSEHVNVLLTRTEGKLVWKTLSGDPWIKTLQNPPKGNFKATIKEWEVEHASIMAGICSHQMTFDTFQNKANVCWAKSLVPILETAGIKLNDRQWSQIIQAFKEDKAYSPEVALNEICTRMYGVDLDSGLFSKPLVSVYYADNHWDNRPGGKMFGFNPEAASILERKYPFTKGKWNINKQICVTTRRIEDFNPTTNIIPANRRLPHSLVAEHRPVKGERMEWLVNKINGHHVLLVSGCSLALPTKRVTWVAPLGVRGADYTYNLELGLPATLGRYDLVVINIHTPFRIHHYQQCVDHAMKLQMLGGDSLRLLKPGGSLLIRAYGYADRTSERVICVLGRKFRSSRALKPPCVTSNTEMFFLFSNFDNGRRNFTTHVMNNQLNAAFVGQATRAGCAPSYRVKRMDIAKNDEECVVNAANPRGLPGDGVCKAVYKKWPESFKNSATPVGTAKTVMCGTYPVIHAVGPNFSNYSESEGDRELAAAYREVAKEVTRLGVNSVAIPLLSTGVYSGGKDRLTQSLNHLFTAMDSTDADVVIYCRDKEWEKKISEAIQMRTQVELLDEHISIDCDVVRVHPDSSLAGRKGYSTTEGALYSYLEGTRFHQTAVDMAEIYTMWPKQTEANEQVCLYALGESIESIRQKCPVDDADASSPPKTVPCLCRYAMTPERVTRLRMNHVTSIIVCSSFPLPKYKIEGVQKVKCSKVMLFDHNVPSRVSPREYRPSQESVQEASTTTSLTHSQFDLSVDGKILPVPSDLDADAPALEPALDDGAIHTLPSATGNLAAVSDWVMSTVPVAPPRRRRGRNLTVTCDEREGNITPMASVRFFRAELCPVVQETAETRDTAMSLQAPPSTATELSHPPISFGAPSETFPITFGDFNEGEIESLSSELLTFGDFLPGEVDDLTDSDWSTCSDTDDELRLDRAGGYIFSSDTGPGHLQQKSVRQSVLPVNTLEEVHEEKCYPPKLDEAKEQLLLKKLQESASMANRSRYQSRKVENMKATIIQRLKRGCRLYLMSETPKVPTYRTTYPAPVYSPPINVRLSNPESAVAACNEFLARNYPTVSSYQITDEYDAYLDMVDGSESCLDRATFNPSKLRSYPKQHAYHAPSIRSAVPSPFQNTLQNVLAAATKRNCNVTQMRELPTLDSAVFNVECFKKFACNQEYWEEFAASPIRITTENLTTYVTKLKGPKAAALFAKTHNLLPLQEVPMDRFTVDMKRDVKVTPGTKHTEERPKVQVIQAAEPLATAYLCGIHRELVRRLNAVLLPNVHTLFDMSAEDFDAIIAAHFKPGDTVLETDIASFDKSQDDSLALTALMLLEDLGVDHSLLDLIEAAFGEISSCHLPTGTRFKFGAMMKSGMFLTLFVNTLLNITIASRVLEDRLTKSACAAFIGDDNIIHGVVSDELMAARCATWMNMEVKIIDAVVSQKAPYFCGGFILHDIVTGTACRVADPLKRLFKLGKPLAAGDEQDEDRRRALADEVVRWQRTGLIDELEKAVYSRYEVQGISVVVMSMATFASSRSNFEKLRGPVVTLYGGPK
# Numbers without * were called inactive; i = inactive; u = inconclusive; [ ] = remark or other dose. % is scaled to controls: 0 for no effect and ±100 for the full control effect; potency is read from the fitted curve at half-maximal effect. Some of the compounds tested (hit frequency here may not be typical).
Molecule	nsP2pro primary
COc1ccc(-c2[nH]nc3ncc(C(=O)N4CCC(c5ccccc5)CC4)nc23)c(C)c1	i
Cc1nccn1CCC(NC(=O)c1cn(CCN)nn1)c1ccccc1 (configuration not stated)	i
COc1cccc(S(=O)(=O)N2CC(Oc3ccccc3-c3noc(C)n3)C2)c1	i
O=C(c1cn2ccccc2n1)N1C[C@@H](CO)[C@H](c2ccccn2)C1	i
CCOC(=O)c1c(C)c(-c2ccccc2)n(CC(=O)NCc2cccc(OC)c2)c1C	-18%
COc1ccnc(CS(=O)c2nc3ccc(OC(F)F)cc3[nH]2)c1OC (configuration not stated)	u
C=CC(C)(CC/C=C(\C)CC/C=C(\C)CC(O)/C=C(\C)C(=O)O)O[C@@H]1O[C@H](CO)[C@@H](O)[C@H](O)[C@H]1O[C@@H]1O[C@H](CO)[C@@H](O)[C@H](O)[C@H]1O (some centres not stated)	11%[10 µM]
O=C1CCCC2=C1C1(CCCC1)N=C(Nc1nc3cc(Br)ccc3o1)N2	0%
COc1cc(NC(=O)Cn2cnc3c2c(=O)n(C)c(=O)n3C)c(OC)cc1Cl	-18%
O=C(Nc1ccc(-c2nc3ccccc3[nH]2)cc1)c1ccc(Cl)c(Cl)c1	-18%
Cc1ccc(NC(=O)c2oc3ccc(S(=O)(=O)N4CCOCC4)cc3c2C)c(C)c1	-14%
CCC(=O)N1c2ccc(S(=O)(=O)NCCc3ccccc3)cc2CC1C (configuration not stated)	-8%
O=C(Cn1ncc2c3ccccc3n(Cc3cccc(Cl)c3)c2c1=O)N1CCCCC1	-16%
O=C(CSc1nc(-c2ccc(F)cc2)cc(C(F)(F)F)n1)NCCc1ccccc1	-16%
CCC(=O)N1CCc2cc(Br)cc(S(=O)(=O)N3CCCC(C(=O)N(C)c4ccc(Br)cc4)C3)c21 (configuration not stated)	-3%
CN(Cc1nc(-c2ccccc2)cs1)C(=O)c1cccc(-n2cnnc2)c1	-1%
CCCCC12CN3CC(C)(CN(C1)C3c1cc(Br)ccc1O)C2=O (configuration not stated)	-29%
CCOc1ccc(CNS(=O)(=O)c2cc3c(cc2C)NC(=O)CO3)cc1	-12%
COc1ccc(NC(=O)CSC2=Nc3ccccc3C3=NC(CC(=O)NCc4ccccc4OC)C(=O)N23)cc1Cl (configuration not stated)	-14%
COc1ccccc1N1CCN(S(=O)(=O)CCNC(=O)C(c2ccccc2)c2ccccc2)CC1	-23%
OC[C@@]1(O)CO[C@H](OC[C@H]2O[C@@H](OC(CCCCc3ccc(O)cc3)CCc3ccc(O)cc3)[C@H](O[C@H]3OC[C@](O)(CO)[C@H]3O)[C@@H](O)[C@@H]2O)[C@@H]1O (some centres not stated)	72%[activator][10 µM]
CCOC(=O)C1(Cc2ccc(F)cc2)CCCN(C(=O)c2cc3nc(C)cc(C)n3n2)C1 (configuration not stated)	4%
Cc1nn(C)c(C)c1S(=O)(=O)N1CCC(c2noc(C3CC3)n2)C1 (configuration not stated)	-4%
Cn1ccc(Nc2cc3c(cn2)CN(CCc2ccccc2)CCN3)n1	i

# Next part (4 carried over from the part before).
Molecule	nsP2pro primary
OC[C@@]1(O)CO[C@H](OC[C@H]2O[C@@H](OC(CCCCc3ccc(O)cc3)CCc3ccc(O)cc3)[C@H](O[C@H]3OC[C@](O)(CO)[C@H]3O)[C@@H](O)[C@@H]2O)[C@@H]1O (some centres not stated)	72%[activator][10 µM]
CCOC(=O)C1(Cc2ccc(F)cc2)CCCN(C(=O)c2cc3nc(C)cc(C)n3n2)C1 (configuration not stated)	4%
Cc1nn(C)c(C)c1S(=O)(=O)N1CCC(c2noc(C3CC3)n2)C1 (configuration not stated)	-4%
Cn1ccc(Nc2cc3c(cn2)CN(CCc2ccccc2)CCN3)n1	i
O=S(=O)(Nc1nccs1)c1ccc(NCc2cc(Cl)ccc2O)cc1	i
C#C[C@]1(OC(C)=O)CC[C@H]2[C@@H]3CCC4=C[C@@H](OC(C)=O)CC[C@@H]4[C@H]3CC[C@@]21C	u
O=C(CCCn1cncn1)N1CCCC(CCc2ccccc2C(F)(F)F)C1 (configuration not stated)	4%
Cc1cc(Cl)ccc1NC(=O)c1cc(S(=O)(=O)N2CCOCC2)cn1C	-9%
O=C(CCCN1CCC(C(=O)c2ccc(F)cc2)CC1)c1ccc(F)cc1	3%
CCc1ccc(-c2cc(C)no2)cc1S(=O)(=O)NCc1ccco1	u
CC(C)COc1cc(=O)n2c(c1C(=O)NC1CCCCC1)CCCCC2	i
COc1cccc(-c2nc(CS(=O)CC(=O)N3CCN(c4cccc(C(F)(F)F)c4)CC3)c(C)o2)c1 (configuration not stated)	-14%
CCNc1ncnc2sc3c(c12)CCN(C(=O)CCOC)C3	-3%
CCCC(=O)Oc1c(Sc2ccc(Cl)cc2)c(C)nn1-c1ccccc1	u
COc1cc(Cl)ccc1OC(=O)c1cn(-c2ccccc2OC)c(=O)c2ccccc12	-33%
CC(C)(C)C(=O)NC1(C(F)(F)F)C(=O)Nc2c1c(=O)[nH]c(=O)n2-c1ccccc1 (configuration not stated)	-7%
Cc1ccc(NC(=O)CCCc2nnc3n(C)c(=O)c4sccc4n23)cc1C	-29%
CC(CNC(=O)Cn1ccc2cc(S(=O)(=O)N3CCCCC3)ccc21)c1ccccc1 (configuration not stated)	-6%
CCc1ccc(NC(=O)c2ccc(NS(=O)(=O)c3c(C)noc3C)cc2)cc1	-15%
N#Cc1nc(Nc2cccc([N+](=O)[O-])c2)nc(NC2CCCC2)n1	i
Cc1nnc(-c2cnn(C)c2)n1CCCn1ccnc1	1%
CN(C)CC1CCN(C2CCN(C(=O)c3cccc(-c4cc(O)c5ncccc5c4)c3)CC2)CC1	i
COCCn1c(C)cnc1CCNC(=O)Cc1cccc(F)c1	i
CCCNC(=O)Nc1ccc(Oc2ncnc3cc(OC)c(OC)cc23)cc1Cl	12%
CCCCCCc1cccc(NC(=O)[C@H](N)CCP(=O)(O)O)c1	18%[5.1 µM]
CCOc1ccc(OCC)c(S(=O)(=O)N2CCN(c3cccc(C)c3C)CC2)c1	-7%
CCCC(=O)n1nc(-c2cccnc2)nc1NCc1ccc(OC)cc1	-11%
O=C(c1ccccc1)N1CCCC2(CC(c3ccccc3)=NO2)C1 (configuration not stated)	i

# Brought forward from above: three entries; new compounds follow.
Molecule	nsP2pro primary
CCOc1ccc(OCC)c(S(=O)(=O)N2CCN(c3cccc(C)c3C)CC2)c1	-7%
CCCC(=O)n1nc(-c2cccnc2)nc1NCc1ccc(OC)cc1	-11%
O=C(c1ccccc1)N1CCCC2(CC(c3ccccc3)=NO2)C1 (configuration not stated)	i
COCCc1noc(CNC(=O)c2sc3cccc(F)c3c2Cl)n1	-4%
COc1ccc(NC(=O)c2c(C)oc3ccc(O)c(CN4CCCC(C)C4)c23)cc1Cl (configuration not stated)	16%
O=C(Cc1ccncc1)N1CC(F)(F)C[C@H]1c1nc(C2CC2)no1	-3%
Cc1ccccc1-c1noc(-c2ccccc2OCC(=O)Nc2ccccc2[N+](=O)[O-])n1	-8%
CCOCCCNC(=O)CCc1nnc2ccc(N3CCN(c4cccc(OC)c4)CC3)nn12	-9%
O=C(CSc1nnc(-c2cccc(S(=O)(=O)N3CCCC3)c2)n1-c1ccccc1)Nc1ccccc1	i
COc1ccc(C2=Nc3ccccc3N(CC(=O)Nc3cccc(C(C)=O)c3)C(=O)C2)cc1	-8%
C[C@@H](N[C@H]1CCCC[C@@H]1NC(=O)c1ccc(Cl)cc1)c1cccc2ccccc12	4%
CC(C)=CCC/C(C)=C/COCC1OC(n2ccc(=O)[nH]c2=O)C(O)C1O (configuration not stated)	8%
CCCCN(C)CCCNC(=O)c1cc(=O)[nH]c2ccc(S(=O)(=O)N3CCCCC3)cc12	-15%
O=S(=O)(c1ccccc1)N1CCC(CCOc2ccccc2)C1 (configuration not stated)	-11%
COc1ccccc1NC(=O)CSc1ccc(-c2sc(C)nc2C)nn1	-3%
CC(CCC1(O)OC2CC3C4CC=C5C[C@@H](O[C@@H]6O[C@H](CO)[C@@H](O[C@@H]7O[C@@H](C)[C@H](O)[C@@H](O)[C@H]7O)[C@H](O)[C@H]6O[C@@H]6O[C@@H](C)[C@H](O)[C@@H](O)[C@H]6O)CC[C@]5(C)C4CC[C@]3(C)[C@@]2(O)[C@@H]1C)CO[C@@H]1O[C@H](CO)[C@@H](O)[C@H](O)[C@H]1O (some centres not stated)	5%[5.1 µM]
COc1cccc(CNC(=O)CCNS(=O)(=O)c2ccc3c(c2)CCCC(=O)N3)c1	-13%
CCc1ccc(NC(=O)C(=O)NNC(=O)c2cccs2)cc1	i
Cc1cnc(C(=O)N2CCC(c3nnc(CN4CCCC4)n3C3CC3)CC2)cn1	-2%
Cn1ccnc1C(=O)C1CCCN(Cc2cc(=O)c3cccc(Cl)c3[nH]2)C1 (configuration not stated)	5%
Cc1cccc(NC(=O)Cn2nnc(C(=O)Nc3ccc(F)c(Cl)c3)c2N)c1	-16%
Cc1nn(C)c2c1c(C(F)(F)F)cc(=O)n2CC(=O)NCCC(C)C	-10%
CCOC(=O)c1c(C)[nH]c(C)c1S(=O)(=O)N1CCC(C(=O)Nc2ccc(OC)c(OC)c2)CC1	-19%
CCCn1c(-c2ccc(F)cc2)nc2c(N3CCN(C)CC3)nc(C)nc21	i
Cc1ccc(-n2ncc(C(=O)NCCN3CCc4ccccc4C3)c2C2CCN(C(=O)OC(C)(C)C)CC2)cc1C	11%
CC(CNC(=O)Cn1ccc2cc(S(=O)(=O)N3CCCCCC3)ccc21)c1ccccc1 (configuration not stated)	-16%
COc1cc(=O)n2c(c1C(=O)NC1CCCCCC1)CCCC2	i
CCOc1ccc(CCNC(=O)c2oc(=O)c3ccccc3c2-c2ccc(C)cc2)cc1OCC	-15%
CN1C[C@H](O)C[C@H]1c1nnc2n1CCN(C(=O)Cc1cccc(F)c1)CC2	4%
CCN1CCN(c2ncc3c(n2)CCN(Cc2ccc(C)s2)C3)CC1	21%
CN(Cc1ccc(F)cc1)C(=O)c1cn(Cc2ccccc2C(F)(F)F)nn1	-6%
Cc1ccccc1-n1c(/C=C/c2ccccc2F)nc2ccccc2c1=O	-12%
COc1ccccc1N1CCN(c2ccc(=O)n(CC(=O)NCc3ccc(OC(C)C)cc3)n2)CC1	-13%
Cc1cccc(N(C)c2ccc3cc(S(=O)(=O)N4CCCC4)ccc3n2)c1	-31%
CCN(CC)CCCCn1c(-c2ccccc2)nc2c(NCc3ccccc3)nc(C)nc21	-3%
O=[S+]([O-])(c1cccc(C(F)(F)F)c1)N1CC(CNc2cccnc2)C2(CN(c3ccccc3)C2)C1 (configuration not stated)	-28%
COC(=O)c1c(SC)nc2ccccc2c1OCc1ccc(C)cc1	-27%
COCCn1cnnc1CNc1cc(-c2ccncc2)nc2ccnn12	i
Nc1nc(NCc2ccc(N3CCCC3=O)cc2)cc(C2CC(O)C2)n1 (configuration not stated)	-2%
CC(=O)NC(c1ccco1)c1cc(F)c2cccnc2c1O (configuration not stated)	i
CCOC(=O)Cn1c(=O)oc2cc(S(=O)(=O)N3CCN(c4ccccc4F)CC3)ccc21	-18%
CC(CCC1(O)OC2CC3C4CCC5CC(O[C@@H]6O[C@H](CO)[C@@H](O)[C@H](O)[C@H]6O[C@@H]6O[C@@H](C)[C@H](O)[C@@H](O)[C@H]6O)C(O)CC5(C)C4CCC3(C)C2C1C)CO[C@@H]1O[C@H](CO)[C@@H](O)[C@H](O)[C@H]1O (some centres not stated)	-2%[5.1 µM]
CC/C(=C(/CC)c1ccc(O)cc1)c1ccc(O)cc1	9%
Cc1ccc(C)c(OCc2cc(C(=O)N3CCC(N4CCSCC4)CC3)no2)c1	-12%
O=C(CC1CCCC1)N1CCC(Nc2cccnc2)C1 (configuration not stated)	-28%
O=c1cc(-c2cnccn2)oc2c(Nc3cccc(OC(F)(F)F)c3)nccc12	u
CN1C(=O)NC(c2ccccc2Cl)C2=C1CCCC2=O (configuration not stated)	-3%
CC(C)n1c(=O)cc(N[C@@H](C)c2ccccc2)[nH]c1=O	-16%
CCC1C(C)=NN=C(c2ccc(OC)c(OC)c2)c2cc(OC)c(OC)cc21 (configuration not stated)	1%
O=C(NCc1ccc2c(c1)OCO2)c1ccc2c(c1)N(Cc1ccccc1)C(=O)c1ccccc1S2=O (configuration not stated)	-20%
O=c1[nH]c2ccc(NCc3ccccc3F)cc2[nH]1	-12%
O=C1CC(c2ccccc2)NCCCCCCN1 (configuration not stated)	i
CN(C)CCC=C1c2ccccc2C(C)(C)c2ccccc21	-34%
C=C1CC2OC(=O)C(=C)C2C(OC(=O)/C(C)=C\C)CC2(C)OC1=CC2=O (configuration not stated)	u
O=C(Nc1ccc(F)cc1)c1cc(-c2ccc[nH]2)n[nH]1	10µM*
c1ccc2cc(-c3noc([C@@H]4Cc5nc[nH]c5CN4CC4CCCCC4)n3)ccc2c1	i
C[S+](=O)([O-])N1CC2(Cc3ccccc31)CN(C(=O)c1ccc(F)cc1)C2	i
O=C(c1ccccn1)N1CCCC2(CNc3ccccc3[S+](=O)([O-])N2)C1 (configuration not stated)	i
CO[C@@H](C)Cn1c(=O)n(C)c2cnc3ccc(-c4cncc(C(C)(C)O)c4)cc3c21	9%
N[C@H]1[C@H](O)[C@@H](N2CCCCC2)[C@@H]2OC[C@H]1O2	-1%[39.2 µM]
O=C(Cc1cccs1)N1CCCn2cc(-c3ccccc3F)nc21	-15%
CCCN1CCN(CCCNC(=O)c2ccc(CS(=O)c3ccc(OC)cc3)o2)CC1 (configuration not stated)	-7%
O=C(Cn1c2c(c(=O)n1Cc1ccccc1)CCN(Cc1ccccc1)C2)NCc1cccc(Cl)c1	u
COc1ccc2cc(C(=O)N3CC4CC(C3)[C@H]3CCCC(=O)N3C4)[nH]c2c1 (some centres not stated)	-2%
